Screening results from PubChem.
Ba CapD inh: CapD enzyme inhibition; 0.23% of 140,000 active; z-score (test concentration not listed); purified CapD enzyme, fluorescence intensity read-out; active compounds read low; some hits fall short of the stated cut;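 active = z-score under -4 in either of two replicates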;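 also: stock transfer was 100 nL into about 40 µL; score is relative to mean and spread of the plate; one replicate is shown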
AID504770: E. coli YBA685 growth inhibition, screen for V. cholerae RctB inhibitors; E. coli YBA685 rctB-dependent plasmid, OD600 growth, 3 h; active compounds read low; z-score (test concentration not listed); 0.27% of 130,000 active;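 active = z-score under -2 on both plates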;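 also: wells of about 30 µL received 100 nL stock; score is relative to mean and SD of the test wells; the first replicate is given; strong numbers were not always called active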
An asterisk follows results filed as active; i = inactive; / = not tested or not shown; & = joins results of further samples.

SMILES	Ba CapD inh	AID504770
COC(=O)c1cn(C(=O)c2cc(OC)cc(OC)c2)nc1N	-0.39	1.4
CC1=CS/C(=C(/C#N)C(N)=O)N1c1ccccc1	-1.3	-1.1
[O-]/[N+](=C\c1ccco1)C/C(=N/O)c1cccs1	-0.55	-0.65
COc1ccc(CNC(=O)c2ccc(C)cc2)c(OC)c1	0.33	/
CCOC(=O)CC(=O)c1sc(SCc2ccccc2)nc1N	-2.5	-0.85
COc1ccc(/C=C(\C#N)C(=O)Nc2ncc(Cc3cc(Cl)ccc3Cl)s2)cc1OC	-0.095	/
CC(C)N(Cc1ccccc1)C(=O)c1ccccc1	0.095	-0.4
CC(C)N(C(=O)NCc1ccccc1)C(C)C	0.17	-0.55
CCOc1ccc2nc(NC(=O)c3ccc4c(c3)OCCO4)sc2c1	6.7	/
COc1ccc(S(=O)(=O)N2CCC(O)(c3ccc(Cl)cc3)CC2)cc1OC	-0.44	/
Cc1ccc(OCCn2c(SCC(N)=O)nc3ccccc32)cc1	/	-0.35
O=C1Nc2ccc(S(=O)(=O)NCc3ccccc3)c3cccc1c23	19	/
CC(C)(C)C1CCc2c(sc3nc(-c4ccccc4F)oc(=O)c23)C1 (stereo not drawn)	0.27	/
Cc1cccc(N2CC(C(=O)O)CC2=O)c1 (stereo not drawn)	/	-0.15
Cn1ccsc1=NC(=O)COc1cccc2ccccc12	/	-0.45

Single entries from the list.
`CC(C)(C)C1CCc2c(sc3nc(-c4ccccc4F)oc(=O)c23)C1` (stereo not drawn) in Ba CapD inh reads 0.27
`[O-]/[N+](=C\c1ccco1)C/C(=N/O)c1cccs1` in Ba CapD inh reads -0.55
`Cc1cccc(N2CC(C(=O)O)CC2=O)c1` (stereo not drawn) in AID504770 reads -0.15

Structures from the list above containing a Cl atom (2):
SMILES	Ba CapD inh	AID504770
COc1ccc(/C=C(\C#N)C(=O)Nc2ncc(Cc3cc(Cl)ccc3Cl)s2)cc1OC	-0.095	/
COc1ccc(S(=O)(=O)N2CCC(O)(c3ccc(Cl)cc3)CC2)cc1OC	-0.44	/

New compounds follow.
SMILES	Ba CapD inh	AID504770
CC(c1ccccc1)C1C(C#N)=C(N)SC(N)=C1C#N (stereo not drawn)	/	-1.4
O=C(/C=C/c1ccc(OCCCF)cc1)NCc1ccc2c(c1)OCO2	0.56	/
CC1(C)CC(=O)C=C(NCc2ccccc2)C1	-1.3	-0.45
O=C(CSc1nc2ccccc2o1)Nc1ccccc1	/	-0.45
CCOC(=O)c1sc(SCc2c(Cl)cccc2Cl)c(S(=O)(=O)C(C)C)c1N	-1.3	1.6
COc1cc(OC)cc(-n2c(-c3ccco3)nc3nc4ccccc4nc32)c1	/	0.2
O=S(=O)(NCc1cccnc1)c1cccc2nsnc12	-0.78	-0.7&0.2
Cc1nccc(-c2cc(-c3cccc(C(F)(F)F)c3)no2)n1	10	0.55
CCC(Sc1nc(=O)cc(N)n1CCc1ccccc1)C(=O)Nc1ccccc1C#N (stereo not drawn)	-0.46	-0.35
COc1ccc(/C=C/C#N)c(Cl)c1OC	0.075	/
COC(=O)c1ccc2c(c1)C1C3CCC(C3)C1C(c1ccccc1)N2 (stereo not drawn)	0.14	-0.15
CC(C)OC(=O)C(C)Oc1ccc2c3c(c(=O)oc2c1)CCC3 (stereo not drawn)	29	-0.95
Cc1cc(OCC(=O)N(c2ccccc2)C2CCCCC2)c2ccccc2n1	0.23	1.4
O=C1/C(=C/c2cccs2)SC(=S)N1C1CCCCC1	-0.23	1.4
O=C1CC(c2ccccc2)CN1C(=O)c1ccccc1Cl (stereo not drawn)	-0.61	1.8

Compound profiles, from the list above:
Listed for `CCOC(=O)c1sc(SCc2c(Cl)cccc2Cl)c(S(=O)(=O)C(C)C)c1N` : Ba CapD inh: -1.3; AID504770: 1.6
Listed for `Cc1ccc(OCCn2c(SCC(N)=O)nc3ccccc32)cc1` : Ba CapD inh: /; AID504770: -0.35
Listed for `COc1ccc(CNC(=O)c2ccc(C)cc2)c(OC)c1` : Ba CapD inh: 0.33; AID504770: /

Further compounds follow.
SMILES	Ba CapD inh	AID504770
CS/C(=C(/C#N)S(=O)(=O)c1ccc(Cl)cc1)N1CCOCC1	-1.3	-0.65
NS(=O)(=O)c1cc(C(=O)OCC(=O)NC2CC2)ccc1Cl	/	0.2
Cc1c(C=Nc2ccc(N3CCOCC3)cc2)c2ccccc2n1C	-0.86	-1.1
CCN1C(=O)CC(C(=O)Nc2ccc(Cl)cc2)SC1=Nc1ccc(Br)cc1 (stereo not drawn)	0.25	/
CC(C)N(C(=O)CSc1nnc(-c2ccco2)n1C)C(C)C	/	0.9
Cc1ccccc1NC(=O)CSC1=NCCN1	-0.56	-0.45
O=C(CSc1ncccc1C(=O)O)c1ccccc1F	/	-0.3
Cc1c(C(=O)N2CCC(C(N)=O)CC2)sc(N)c1C#N	0.19	-0.85
C=CCn1c(C)cc(C(=O)CSc2nc(-c3ccccc3)cn2N)c1C	/	0.45
O=C(NC1CC2CCC1C2)c1ccccc1 (stereo not drawn)	0.39	0.1
FC(F)(F)c1cc(Cl)nc(-c2ccncc2)n1	-0.28	0.75
CC1N(O)C(C)(C)C(c2ccccc2)=[N+]1[O-] (stereo not drawn)	/	-1.1
O=C(NCCCC(NC(=O)OCCCc1ccccc1)C(=O)OCc1ccccc1)OCc1ccccc1 (stereo not drawn)	-0.005	/
C=CCN(C(=O)c1cccc(Cl)c1)c1ccccc1C(=O)NCC(=O)OCC	0.005	/
COc1cc(OC)c(CNC(=O)OCCN2CCN(Cc3cc(OC)c4c(c3)OCO4)CC2)c(OC)c1	-0.15	/
O=C(c1ccccc1)N1CCN(c2ccnc3cc(Cl)ccc23)CC1	-0.04	0.75
CC1CCCCC12NC(=O)N(CCC#N)C2=O (stereo not drawn)	/	-0.4
O=C(N/N=C/c1ccncc1)c1ccc(C(F)(F)F)cc1	0.18	/
CS(=O)(=O)c1ccc(-n2cc(-c3ccc4ccccc4n3)cn2)cc1	2.4	/
CN(C)c1cccc(N(C)C)c1CNC(=O)NC(=O)c1c(Cl)cccc1Cl	1	0.25
CC12CN3CC(C)(CN(C1)C3c1cccc(Br)c1)C2=O (stereo not drawn)	0.18	/
CC(C)Oc1ccccc1NC(=O)CSc1nnc(-c2ccco2)n1-c1ccccc1	-0.8	-0.55
CCOC(=O)c1cnc2c(C)cc(Cl)cc2c1Cl	0.38	0.15
C=CCSc1n[nH]c(-c2ccc(OC)cc2)n1	-0.15	1.7
O=C(NCCc1ccccc1)c1nnc(CS(=O)(=O)c2ccccc2)o1	0.53	-0.2
CCOc1ccc(N(C)S(=O)(=O)c2cnc[nH]2)cc1	0.59	0.25
CCN(CC)C(=S)SCc1nc(N)nc(Nc2ccc(C)cc2)n1	-0.28	-0.55
CCOc1ccc(N2C(=O)N(CC(=O)N3CCCCC3C)c3ccccc3S2(=O)=O)cc1 (stereo not drawn)	-1.1	1.1
CCc1nc2cccnc2n1CCNC(=O)Nc1ccc(OC)cc1	/	-0.05
O=C(O)c1ccc(Nc2ncnc3ccccc23)cc1	-0.085	-0.55
Cc1ccc(-n2ncc3c(=O)n(CC(=O)N4CCc5ccccc54)cnc32)cc1C	/	-0.4
Fc1cccc(Cl)c1CSC(=S)N1CCSCC1	0.24	0.35
CCOC(=O)c1ccc(N2C(=O)CC(N3CCN(c4ccc(O)cc4)CC3)C2=O)cc1 (stereo not drawn)	/	-0.3
O=C(NCc1ccc2c(c1)OCO2)c1ccc2snnc2c1	-0.68	-0.8
CCN1CCN(c2ncnc3sc(C(=O)O)c(C)c23)CC1	0.59	/
CC1CCC(C(=O)NC(C(=O)NCc2ccccn2)C(C)C)CC1 (stereo not drawn)	-1	4.2
CN(C)c1ccc(-n2nnnc2SCC(=O)C(C)(C)C)cc1	-0.69	0.05
CC(=O)NC(CC(=O)n1nnc2ccccc21)c1ccccc1 (stereo not drawn)	/	0.8
Cc1nnc(COC(=O)CC23CC4CC(CC(C4)C2)C3)o1	/	-0.3
CCc1ccc2c(c1)c1nc3ccccc3nc1n2CC	-0.52	1.6
CN(C)S(=O)(=O)c1ccc(C(N)=O)cc1	0.43	-0.05
Cn1c(SCC(=O)Nc2ccccc2)nnc1-c1ccc2ccccc2c1	1.2	1.4
CCc1cc(Br)ccc1S(=O)(=O)N1CCN(c2ccc([N+](=O)[O-])cc2)CC1	-1.8	/
COc1cc2c3c(c1)C1(C(=O)N3C(C)(C)C=C2C)C(C#N)=C(N)NC(=O)C1C(N)=O (stereo not drawn)	/	0.15
COc1ccccc1N1CCN(C(=O)c2ccc3c(=O)n(Cc4ccco4)c(=S)[nH]c3c2)CC1	-0.68	/
COc1ccc(OC(=O)c2ccc(-c3ccccn3)s2)cc1	-0.16	0.1
Cc1oc2c(c1CC(=O)O)C(=O)CC(C)(C)C2	/	-0.45
CCCOc1ccc(C2C(C(=O)OC)=CN(CCOC)C=C2C(=O)OC)cc1	90	-0.7
O=C(OCc1ccc2nonc2c1)c1c2c(nc3ccccc13)CCCC2	0.56	2.4
O=S(=O)(c1ccc(Cl)cc1)N1CCCC1c1ccc(F)cc1 (stereo not drawn)	0.06	0.15
CCOC(=O)CCc1c(C)c2c(C)nn(-c3ccccc3)c2[nH]c1=O	-0.17	-0.75
CC1=C(C(=O)OCCc2ccccc2)C(c2ccc(Cl)cc2Cl)CC(=O)N1 (stereo not drawn)	0.13	/
CC(C)c1ccc(-c2nnn(Cc3cc(=O)n4ccsc4n3)n2)cc1	/	-2.2*
Nc1cc(C(F)(F)F)ccc1Oc1ccc(Cl)cc1Cl	-0.045	0.4
CN(Cc1ccccc1)C(=O)c1c[nH]c2ccc(S(=O)(=O)N3CCOCC3)cc2c1=O	-2.7	2.1
CC1=C(c2cccc(Br)c2)S(=O)(=O)NC1=NC1CCCC1	-1.8	2.3
Cc1ccc(S(=O)(=O)N(c2nc(N(C)C)nc(N(C)C)n2)n2cnnc2)cc1	0.54	-0.1
O=C(NCCc1c[nH]c2ccccc12)c1ccc2nc[nH]c2c1	/	1.2
CC1CC/C(=C\c2ccc(Cl)cc2)C(=O)C1 (stereo not drawn)	/	-0.15
CCCCCOc1ccc(C(CC(N)=O)CC(=O)O)cc1 (stereo not drawn)	/	1.6

3 structures already listed, sorted by formula weight, smallest number first:
SMILES	Ba CapD inh	AID504770
CC1(C)CC(=O)C=C(NCc2ccccc2)C1	-1.3	-0.45
COC(=O)c1cn(C(=O)c2cc(OC)cc(OC)c2)nc1N	-0.39	1.4
C=CCn1c(C)cc(C(=O)CSc2nc(-c3ccccc3)cn2N)c1C	/	0.45

Next structures:
SMILES	Ba CapD inh	AID504770
CCOCCCN=C1NC(CC)CS1 (stereo not drawn)	/	-0.3
Cc1ccc(S(=O)(=O)NC(=O)Nc2ccccc2C(=O)N2CCC(c3c[nH]c4ccccc34)CC2)cc1	2.4	/
CCN(Cc1nc(-c2ccc(OC)c(OC)c2)no1)C(=O)CCC1CCCCC1	/	-0.85
CS(=O)(=O)N1CCN(C(=O)c2ccccc2)CC1	/	-0.9
Cc1nn(-c2ccccc2)c2nc(N)c(C#N)c(-c3ccco3)c12	/	-0.4
Cc1ccc(NC(=O)COC(=O)CC2Oc3ccccc3NC2=O)cc1 (stereo not drawn)	/	-0.4
C[C@@]12C[C@H](O)CCN1CCc1ccccc12	2.4	-0.15
N=C1C(c2nc3ccccc3s2)=C(O)CN1C1CCCC1	13	-0.75
O=C(O)c1ccc(-c2ccc(/C=C3\Sc4ccccc4C3=O)o2)cc1	-2.2	1.6
C/C(=N\O)c1csc(-c2ccno2)n1	0.13	-1
NC(=O)COC(=O)CC12CC3CC(CC(Br)(C3)C1)C2	0.91	-0.65
NC(=O)C1CCN(c2ccc(Cl)nn2)CC1	/	-0.5
NS(=O)(=O)c1ccc(CNC(=O)c2scc3c2OCCO3)cc1	-0.08	-0.4
COC(=O)C(CC(C)C)NS(=O)(=O)c1ccc(-c2nnc(SC)n2C)s1 (stereo not drawn)	70	-0.95
Cc1cnc(=O)[nH]c1SCC(=O)c1ccc(F)cc1	/	0.2
COc1ccc(-c2n[nH]c(=S)n2CCC(=O)O)cc1	/	-0.4
CC1(C)CC(=O)C2=C(C1)Nc1[nH]c(=O)[nH]c(=O)c1C2c1ccc(F)cc1 (stereo not drawn)	9.7	/
CC(C)c1ccc(Nc2c(-c3ccccc3)nc3cnccn23)cc1	0.015	0.45
O=S1(=O)CCC(N=Cc2ccccc2Cl)C1 (stereo not drawn)	0.29	-0.5
Cc1cc(/C(N)=N/OC(=O)Nc2ccccc2)no1	0.24	-2
CC1CCCC(C)N1C(=O)COc1ccc(Br)cc1 (stereo not drawn)	-0.73	-0.4
COc1ccc(NC(=O)Nc2c(SC)nsc2SC)cc1	-0.96	-0.3
O=[N+]([O-])c1c(Nc2ccc(Cl)cc2)cc(N2CCOCC2)c2nonc12	0.04	/
O=C(/C=C/c1ccc(F)cc1)NC(=S)Nc1ccccc1O	-0.28	-0.55
CCOc1cc(C#N)c(NC(=O)c2cccs2)cc1OCC	24	-1.1
CC(=O)Nc1ccc(NC(=O)Cn2cc3c(n2)CCC(C)C3)cc1 (stereo not drawn)	-0.26	0.2
CCn1c(=O)cc(SCC(=O)NCc2cccs2)c2ccccc21	0.28	0.35
COC(=O)c1cc(S(=O)(=O)N2CCC(c3ccccc3)C2)c[nH]1 (stereo not drawn)	-1.3	0.4
O=C(CSc1nnc(-c2ccccc2)c(-c2ccccc2)n1)Nc1ccc(F)cc1	-0.73	/
CC12C=CC(O1)C1C(=O)N(c3ccc(Br)cc3[N+](=O)[O-])C(=O)C12 (stereo not drawn)	-0.29	/
CCOC(=O)Cc1csc(SCc2nc3sc4c(c3c(=O)[nH]2)CCCC4)n1	/	0.9
O=C(CN1CCOCC1)N1CCN(c2ccccc2)CC1	/	-0.55
COc1ccccc1C(CC#N)c1ccco1 (stereo not drawn)	0.01	-0.15
CS(=O)(=O)c1ccc2nc(NC(=O)c3cccc(C(F)(F)F)c3)sc2c1	i	-0.65
